Screening data as filed in PubChem BioAssay.
Ecoli rRNA inh – inhibits bacterial ribosomal RNA function over humanized ribosomes; 1.6% of 350,000 active; E. coli WT GFP vs humanized-ribosome RFP mutants, fluorescence, 24 h; hits give low values; DMSO median 0, no signal -100; GFP signal change (wild-type ribosome), % (concentration not given with the values);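 active = significant combined selectivity score with lowered wild-type GFP, culture density cut under 30%, mutant RFP and density less affected; inactive = any of these conditions unmet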; note: one replicate is shown; some compounds called inactive have numbers as strong as hits
UCH37 inh – blocks the human deubiquitinase UCH37. inhibition, % (test concentration not listed). AID 588478. Q9Y5K5. purified proteasome/UCH37, Ub-AMC cleavage fluorescence. 0.33% of 330,000 active;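 active = mean of two replicates above 20%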;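 note: 0% = compound-free wells with enzyme and 100% = wells lacking proteasome; stock transfer was 100 nL into about 20 µL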
Target sequence (Q9Y5K5 whole entry, looked up): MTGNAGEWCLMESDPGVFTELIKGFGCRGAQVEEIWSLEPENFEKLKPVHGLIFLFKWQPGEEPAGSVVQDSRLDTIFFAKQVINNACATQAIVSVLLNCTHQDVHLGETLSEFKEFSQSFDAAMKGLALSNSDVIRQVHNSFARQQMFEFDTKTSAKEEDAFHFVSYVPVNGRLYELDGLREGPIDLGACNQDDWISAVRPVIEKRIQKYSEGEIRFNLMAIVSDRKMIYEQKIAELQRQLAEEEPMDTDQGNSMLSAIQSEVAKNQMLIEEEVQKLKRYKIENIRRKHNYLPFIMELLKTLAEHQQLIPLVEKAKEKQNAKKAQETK
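system = Proteasome-associated human UCH37 deubiquitinase | amount = 0.15 nM proteasome as dispensed | medium = pH 7.4 Tris-HCl (50 mM) with ovalbumin, ATP-MgCl2, DTT | incubation = 30 min preincubation with enzyme, 25 min cleavage at room temperature | detection = AMC fluorescence 355/460 nm | read-out basis = percent inhibition | controls = no-proteasome and no-compound wells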
E coli growth – inhibitors of Escherichia coli growth; AID 1053175; OD600, 23 h; hits give low values; 0.21% of 330,000 active; OD600 absorbance (no concentration beside the values);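 active = OD600 absorbance below the run mean of sample wells minus 3.6 SD, in any replicate, cut at about 0.56 in these data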;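 note: stock transfer was 300 nL into about 60 µL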
HNF4A DNA FP – change in binding of human HNF4 alpha to DNA | activity change, % at 10 µM | HNF4a-FITC DNA binding, fluorescence polarization, 1 h | AID 1224865 | 0.3% of 360,000 active | P41235; in the data active = activity change above about 30%, passing the limit was not always enough;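 note: controls were the assay level and a saturating level of protein; the project sought stronger binding though the title names inhibitors; some compounds called inactive have numbers as strong as hits; positive values seem to mean higher polarization but the record does not say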
ALR inh – human ALR oxidase inhibition via reduced H2O2 | P55789 | purified ALR, DTT oxidation, H2O2 HRP-luminol luminescence | inhibition, % (test concentration not listed) | 3.8% of 290,000 active | AID 485317;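 active = mean and each replicate at 75% or more; inconclusive = only one of the two met; inactive = neither met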;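 note: stock transfer was 7.5 nL into about 7.5 µL; 0% = neutral wells and 100% = wells with inactivated enzyme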
Target sequence (P55789 whole entry, looked up): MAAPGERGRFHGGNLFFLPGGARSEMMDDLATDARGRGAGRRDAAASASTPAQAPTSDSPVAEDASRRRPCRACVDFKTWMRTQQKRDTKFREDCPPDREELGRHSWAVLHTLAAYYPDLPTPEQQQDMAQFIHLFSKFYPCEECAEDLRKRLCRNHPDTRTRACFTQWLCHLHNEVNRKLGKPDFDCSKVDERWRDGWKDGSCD
FGF22 binding – FGF22 (human) thermal shift binding; recombinant FGF22 thermal shift, SYPRO orange fluorescence; percent of sucrose octasulfate shift, DMSO zero; 1.5% of 340,000 active; Q9HCT0; calls only at 9.99 µM;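 active = melting point raised past a set limit in the mean and every replicate; inconclusive = no clear call; three in four hits are not shown here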
B2AR ag – human beta-2 adrenergic receptor agonism by FAP; P07550; Am2.2-beta2AR cells, FAP receptor internalization, flow cytometry; reference of the scale not given here; response, % (concentration not given with the values); 0.43% of 340,000 active;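 active = response above a set limit, near 3 SD of response in nonfluorescent compounds, cut at about 42% in these data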;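 note: stock transfer was 100 nL into about 11 µL; a reference agonist was the positive control; negative values mostly stem from fluorescent compounds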
Target sequence (P07550 whole entry, looked up): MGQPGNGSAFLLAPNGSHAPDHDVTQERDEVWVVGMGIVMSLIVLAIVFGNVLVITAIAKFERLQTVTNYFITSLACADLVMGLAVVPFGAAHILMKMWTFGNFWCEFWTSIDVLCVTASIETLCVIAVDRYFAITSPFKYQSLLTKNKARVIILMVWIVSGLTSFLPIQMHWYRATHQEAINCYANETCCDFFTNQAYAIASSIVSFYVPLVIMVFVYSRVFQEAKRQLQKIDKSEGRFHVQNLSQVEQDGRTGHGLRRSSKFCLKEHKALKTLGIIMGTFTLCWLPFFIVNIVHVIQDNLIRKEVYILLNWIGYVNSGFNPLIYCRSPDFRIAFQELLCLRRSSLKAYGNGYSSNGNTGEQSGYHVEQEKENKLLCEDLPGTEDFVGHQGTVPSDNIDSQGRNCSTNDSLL
Ecoli rRNA inh OD600 – recorded beside Ecoli rRNA inh, whose call it bears; OD600 change, %; measured here: OD600 growth;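 optical density of the mix in the first replicate; 0 = DMSO median and -100 = no signal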
Ecoli rRNA inh RFP – further read-out of Ecoli rRNA inh, marked with its call; RFP signal change, %; measured here: RFP humanized mutant strains;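 first replicate; 0 = DMSO median and -100 = no signal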
An asterisk follows results filed as active; i = inactive; ? = inconclusive; . = no result given. The list is partial; rates above refer to the full screens.

SMILES	Ecoli rRNA inh	Ecoli rRNA inh OD600	Ecoli rRNA inh RFP	UCH37 inh	E coli growth	HNF4A DNA FP	ALR inh	FGF22 binding	B2AR ag
CC(=O)c1cccc(N(CC(=O)N2CCCC2)S(C)(=O)=O)c1	6	3	-2.1	0.6	0.68	4.3	1	i	2
Cc1ccc(NC(=O)CCNS(=O)(=O)c2ccc3[nH]c(=O)oc3c2)c(C)c1	2	4	-0.8	2.0	0.71	-1.2	-5	i	3
Cc1noc(C)c1COc1cccc(C(=O)OCC(=O)NC(=O)c2ccc(OC(F)F)cc2)c1	10	9	-0.7	2.6	0.71	2.5	-8	i	7
COc1ccccc1C(=O)NNC(=O)c1ccncc1	13	8	1.4	0.8	0.69	4.0	1	i	-4
O=C(CSc1ccc(Br)cc1)N1CCN(S(=O)(=O)c2ccccc2)CC1	-24	-29	-4.8	2.9	0.68	3.5	-10	i	-3
CN(CC(=O)N1CCN(Cc2ccccc2)CC1)C(=O)Cc1ccc(Cl)c(Cl)c1	-8	-17	0.4	2.0	0.67	-2.6	-6	i	-2
COc1ccccc1NS(=O)(=O)c1cc(N/C(=N\S(=O)(=O)c2ccccc2)c2ccc(F)cc2)ccc1Cl	.	.	.	.	.	0.1	-5	.	21
FC(F)c1nc2ccccc2[nH]1	15	10	-0.2	1.0	0.66	4.0	6	.	5
O=[N+]([O-])c1ccccc1COc1ccc(Cl)c2cccnc12	8	8	-1.2	5.0	0.68	1.3	-21	i	-2
N#Cc1c(N)c(C(=O)c2ccc(Br)cc2)n2c1CCC2	.	.	.	3.4	0.76	-2.5	-4	.	-4
CN(CC(=O)Nc1ccccc1Br)C(=O)c1cc(S(=O)(=O)N(C)C)ccc1N1CCCC1	-10	-6	-4.4	3.1	0.69	0.2	-6	i	-1
Cc1occc1C(=O)N1CCN(c2ccc(Cl)cc2)CC1	-4	-6	1.3	.	.	-0.4	?	i	-1
O=C(C1CCCC1)N1CCN(S(=O)(=O)c2ccc(Cl)cc2)CC1	4	0	-1.1	1.1	0.71	-1.7	1	i	-20
Cc1ccc(-c2csc(N(CC3CCCO3)C(=O)c3ccco3)n2)cc1 (stereo not drawn)	.	.	.	1.0	0.73	1.7	-2	.	-2
NS(=O)(=O)c1ccc(SCc2ccccc2)nc1	-24	-45	-3.6	3.8	0.65	2.1	-1	i	-3
COCCNc1c2c(nc3c(-c4ccccc4)c(C)nn13)CCC2	.	.	.	-14	0.66	-0.2	.	i	-14
O=C(O)CC1NC(=S)N(c2ccccc2)C1=O (stereo not drawn)	.	.	.	-1.4	0.66	-3.8	0	.	7
C=CCC[C@@H](Cc1ccc(F)cc1)C(=O)OC[C@@H](C)NC(=O)[C@H](CC=C)CC(=O)N(CCO)Cc1ccccc1	-10	-22	0.9	4.4	.	0.8	-10	i	2
CCOc1ccc(NC(=O)CC2C(=O)N(c3ccccc3)C(=O)N2CCOC)cc1 (stereo not drawn)	0	5	-3.4	3.3	0.73	0.2	-19	i	9
CC1CCCC(C)N1c1nnc(N)s1 (stereo not drawn)	7	13	0.2	0.6	0.72	-2.3	95*	i	0
CCc1c(C)nc(N2CCN(c3ccc(OC)cc3)CC2)[nH]c1=O	0	8	-1.7	2.9	0.7	-2.3	-24	i	4
COc1ccccc1-c1cnc(C(O)c2ccc(CN3CCCC3)cc2)[nH]1 (stereo not drawn)	11	15	0.2	.	.	3.5	.	i	.
Cn1c(=O)[nH]c(=O)c2c1nc(NCc1ccccc1)n2CCCc1ccccc1	.	.	.	1.8	0.71	3.5	0	.	1
Cc1cc(NC(=O)CSc2nc3c(c(=O)n2C)SCC3)no1	.	.	.	3.9	0.69	-5.5	4	i	5
Cc1ccc(CN2C(=O)N/C(=C/c3ccc(-c4ccc(C(=O)O)cc4)o3)C2=O)cc1	8	9	3.8	-5.5	0.71	-4.1	7	i	18

3 compounds already listed, arranged by the number in Ecoli rRNA inh OD600, highest first:
SMILES,Ecoli rRNA inh OD600
Cc1ccc(CN2C(=O)N/C(=C/c3ccc(-c4ccc(C(=O)O)cc4)o3)C2=O)cc1,9
CC(=O)c1cccc(N(CC(=O)N2CCCC2)S(C)(=O)=O)c1,3
O=C(C1CCCC1)N1CCN(S(=O)(=O)c2ccc(Cl)cc2)CC1,0

The listing picks up with the 2 entries that preceded the break.
SMILES	Ecoli rRNA inh	Ecoli rRNA inh OD600	Ecoli rRNA inh RFP	UCH37 inh	E coli growth	HNF4A DNA FP	ALR inh	FGF22 binding	B2AR ag
Cc1cc(NC(=O)CSc2nc3c(c(=O)n2C)SCC3)no1	.	.	.	3.9	0.69	-5.5	4	i	5
Cc1ccc(CN2C(=O)N/C(=C/c3ccc(-c4ccc(C(=O)O)cc4)o3)C2=O)cc1	8	9	3.8	-5.5	0.71	-4.1	7	i	18
Cc1cccc(Nc2nc(N)nc(N)c2N=O)c1	70	9	51	9.0	0.65	1.6	.	i	-5
Cn1c(SCC(=O)NCCc2ccccc2)nnc1-c1ccco1	.	.	.	3.9	0.69	3.1	-14	.	-5
CN1CCN(CCCn2cnc3c(=O)oc4ccccc4c32)CC1	.	.	.	4.9	0.7	-1.7	.	.	0
CCCCOc1ccc(CSC(CC(=O)O)C(=O)O)cc1 (stereo not drawn)	.	.	.	-4.1	0.77	-1.7	20	.	-3
O=C(CSc1nnc2scc(-c3ccc(Cl)cc3)n12)NCc1ccc2c(c1)OCO2	4	10	-2.0	0.5	0.67	2.2	-8	i	-1
S=C(Nc1ccc(Cl)cc1)N1CCCC1	.	.	.	1.0	0.69	-0.5	-3	i	3
O=C(COc1ncnc2sccc12)Nc1cccc(S(=O)(=O)N2CCCC2)c1	-7	-2	-0.4	-0.7	0.68	1.3	-10	i	-4
NC(=S)Nc1ccc(Oc2ccc(NC(N)=S)cc2)cc1	-4	-3	2.5	1.7	0.6	-2.6	99*	i	-5
O=C(Nc1ccc(/C=C/c2nc3ccccc3o2)cc1)c1ccc(F)cc1	.	.	.	-16	0.74	-2.2	-5	.	-3
O=c1ccc(-c2ccc(S(=O)(=O)NCC3CCN(Cc4cccc(F)c4)CC3)s2)n[nH]1	14	8	1.3	0.3	0.6	3.5	6	i	12
CC(=O)CCn1c(=O)n(CCC(C)=O)c(=O)n(CCC(C)=O)c1=O	.	.	.	0.4	0.78	0.0	-9	.	1
CCOC(=O)c1c(-c2ccc(OC)cc2)csc1NC(=O)CCN1CCOCC1	-34	-56	-6.3	.	.	-1.0	64	.	-4
Nc1ccccc1NC(=O)c1ccccc1N	.	.	.	-15	0.65	6.2	31	.	-3
COc1ccccc1-c1cnc(C(O)c2ccc(Cl)c(Cl)c2)[nH]1 (stereo not drawn)	-24	-39	-8.9	.	.	2.1	.	i	.
C=CCSc1nc(-c2ccccc2)c(C#N)c(=O)[nH]1	.	.	.	4.2	0.72	1.4	10	.	-3
Nc1cc2c(cc1C(=O)c1ccc(Cl)cc1)OCCO2	.	.	.	3.1	0.71	0.9	16	.	5
COCCCNc1ccn2nc(-c3cccc(OCc4ccccc4)c3)cc2n1	-26	-48	11	.	.	3.7	.	i	.
O=C(Cc1cccc(NC(=O)C2CCCN(C(=O)c3ccccc3)C2)c1)Nc1cccc(C(=O)N2CCOCC2)c1 (stereo not drawn)	5	13	3.0	4.1	0.7	-2.6	.	i	-1
Cc1cc(C)c(-c2c(N)cc(Br)cc2Br)c(N)c1	-60	-77	-18	5.6	0.69	2.8	.	i	-4
CC(=O)c1ccc(S(=O)(=O)N(Cc2cc3cc4c(cc3[nH]c2=O)OCCO4)CC2CCCO2)cc1 (stereo not drawn)	.	.	.	-4.0	0.68	2.5	-1	.	-2
CCc1nn(CC(=O)NCCC(C)C)c(=O)c2cc3c(OC)cccc3n12	1	4	-1.3	-49	0.7	2.0	-7	i	-1
COC(=O)CSc1n[nH]c(-c2cccnc2)n1	3	8	1.5	2.0	0.7	-1.1	-7	i	-3
COC(CNC(=O)c1ccc(CS(=O)(=O)c2ccc(C)cc2)o1)OC	-1	-2	0.4	2.9	0.68	-0.3	.	i	-2
COc1ccc2oc(N)nc2c1	.	.	.	3.1	0.71	0.8	.	i	-3
O=c1[nH]cnc2sc3c(c12)CCN(Cc1ccccc1)C3	.	.	.	-24	0.65	-3.9	5	.	-2

More structures follow.
SMILES	Ecoli rRNA inh	Ecoli rRNA inh OD600	Ecoli rRNA inh RFP	UCH37 inh	E coli growth	HNF4A DNA FP	ALR inh	FGF22 binding	B2AR ag
Cc1cc(NC(=O)c2nn(C)c(C)c2Br)no1	2	12	3.0	1.5	0.69	3.0	-2	i	-7
COC(=O)C1=C(CSc2nncn2C)NC(=O)NC1c1cc(C)ccc1C (stereo not drawn)	.	.	.	2.4	0.69	3.6	5	.	0
Cc1c(NS(=O)(=O)c2cc(C(=O)N(C)Cc3ccccc3)ccc2Cl)c(=O)n(-c2ccccc2)n1C	5	-4	6.2	0.5	0.68	-1.1	2	i	1
CC(=O)c1ccc(CCCCc2ccc(C(C)=O)cc2)cc1	5	1	0.8	-1.9	0.69	-2.5	.	i	5
C/C(CC(=O)NCc1ccc(Cl)cc1)=N\NC(=O)COc1ccc(C)cc1Br	-2	-7	8.2	.	.	1.3	0	i	-7
Clc1cccc(-c2nc3ccc(Br)cn3c2Cc2ccsc2)c1	-12	-15	-1.0	.	.	35*	.	i	.
CC(C)N(C(=O)NC(=O)NCC1CCCO1)S(C)(=O)=O (stereo not drawn)	.	.	.	0.2	0.69	0.8	-1	.	-2
Cc1ccc(C(C)C)c(OCCn2c(=O)oc3ccccc32)c1	.	.	.	1.6	0.72	0.8	2	.	11
CCS(=O)(=O)Nc1cc(C(=O)OC)ccc1C(=O)OC	.	.	.	-33	0.72	-2.7	-2	.	8
CCS(=O)(=O)N1CCC(C(=O)NCc2ccccn2)CC1	.	.	.	0.2	0.71	-0.3	-1	.	-7
CCCCCN(C(=O)CCC(=O)OCCOc1cccc(Cl)c1)c1c(N)n(CCCC)c(=O)[nH]c1=O	-2	3	-3.4	2.1	0.72	-1.4	9	i	4
COc1ccc(CCNC(=O)COC(=O)c2ccc(C)s2)cc1OC	2	-6	-4.0	1.4	0.67	-4.3	.	i	-3
O=C1CCCN1CCC12CC3CC(CC(C3)C1)C2	-10	-16	-4.5	3.0	0.75	-1.0	-10	i	0
COc1ccc(C(=O)NCC(c2ccco2)N2CCc3ccccc32)c(OC)c1 (stereo not drawn)	-24*	-16*	-0.1*	-1.5	0.69	0.3	35	.	4
COc1ccc(S(=O)(=O)Nc2cc(C)c(O)c(S(=O)(=O)c3ccccc3)c2)cc1	.	.	.	-0.9	0.72	-2.6	36	.	0
CC(=O)Nc1ccc(C(=O)Nc2cccc(-c3cnc4ccccc4n3)c2)cc1	.	.	.	5.0	0.75	48*	.	i	12

An excerpt from above in order of molecular weight, largest number first:
SMILES	Ecoli rRNA inh	Ecoli rRNA inh OD600	Ecoli rRNA inh RFP	UCH37 inh	E coli growth	HNF4A DNA FP	ALR inh	FGF22 binding	B2AR ag
CCCCCN(C(=O)CCC(=O)OCCOc1cccc(Cl)c1)c1c(N)n(CCCC)c(=O)[nH]c1=O	-2	3	-3.4	2.1	0.72	-1.4	9	i	4
CC(=O)Nc1ccc(C(=O)Nc2cccc(-c3cnc4ccccc4n3)c2)cc1	.	.	.	5.0	0.75	48*	.	i	12
CC(C)N(C(=O)NC(=O)NCC1CCCO1)S(C)(=O)=O (stereo not drawn)	.	.	.	0.2	0.69	0.8	-1	.	-2
Cc1cc(NC(=O)c2nn(C)c(C)c2Br)no1	2	12	3.0	1.5	0.69	3.0	-2	i	-7
